TRPV1 PAM – human TRPV1 potentiation | Q8NER1 | TRPV1-expressing cells, Fluo-8 calcium influx, capsaicin EC20 potentiation; host cell line not named in the record; control for the full effect not named in the record | potentiation, % at 8.33 µM | 0.02% of 320,000 active; active means potentiation above 80%; inconclusive means 30% to 80%; inactive means below 30%; note: 0% is about no effect
Target sequence (Q8NER1 whole entry, looked up): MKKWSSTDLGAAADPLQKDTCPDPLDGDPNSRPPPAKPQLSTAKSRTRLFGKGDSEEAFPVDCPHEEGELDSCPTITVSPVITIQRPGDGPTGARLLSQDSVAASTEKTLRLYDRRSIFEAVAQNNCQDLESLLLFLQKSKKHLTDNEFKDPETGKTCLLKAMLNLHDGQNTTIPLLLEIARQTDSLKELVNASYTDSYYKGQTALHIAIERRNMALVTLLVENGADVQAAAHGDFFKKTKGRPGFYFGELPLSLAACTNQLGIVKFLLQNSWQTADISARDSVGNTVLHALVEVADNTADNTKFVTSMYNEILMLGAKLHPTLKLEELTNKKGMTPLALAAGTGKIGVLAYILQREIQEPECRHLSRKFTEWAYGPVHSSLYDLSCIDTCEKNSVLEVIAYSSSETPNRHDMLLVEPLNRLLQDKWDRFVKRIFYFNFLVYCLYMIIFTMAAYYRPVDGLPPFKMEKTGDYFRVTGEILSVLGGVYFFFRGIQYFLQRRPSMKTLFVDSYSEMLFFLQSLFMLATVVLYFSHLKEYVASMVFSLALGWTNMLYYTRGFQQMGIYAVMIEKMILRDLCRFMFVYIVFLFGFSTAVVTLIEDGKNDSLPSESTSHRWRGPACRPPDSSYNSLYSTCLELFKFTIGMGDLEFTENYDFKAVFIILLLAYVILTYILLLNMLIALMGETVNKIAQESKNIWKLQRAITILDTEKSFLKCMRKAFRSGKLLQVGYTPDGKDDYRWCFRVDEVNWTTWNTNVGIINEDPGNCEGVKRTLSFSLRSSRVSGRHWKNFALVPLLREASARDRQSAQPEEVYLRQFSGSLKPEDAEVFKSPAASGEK
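TRPV1-expressing cells were cultured overnight at 35.5C and loaded with Fluo-8 calcium dye for 40 to 90 min at room temperature. After a 10 s baseline, compound was added and calcium influx was read kinetically for 3 min (ex 480/em 520 nm).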
TRPML1 inh – human mucolipin-1 channel inhibition. AID 624415. activity change, negative = inhibition, % (concentration not given with the values). 0.02% of 390,000 active. TRPML1-inducible cells, Ca2+ dye fluorescence, FDSS; active compounds read low; inhibition of EC80 agonist-evoked calcium signal. Q9GZU1; in the data active means activity change below about -50%; inconclusive means about -30% to -50%; inactive means above about -30%;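 note: stimulus is agonist 54-4 at its EC80 concentration; % is set by controls: 0 for no effect and ±100 for the full control effect; the text of the record puts the active cut at -80%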
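TRPML1-DL cells, Tet-induced overnight (~16 h, 37 °C) at 1,500 cells/well, were loaded with Ca8 no-wash dye plus quencher for 45-90 min at room temperature. Compounds were pinned during FDSS kinetic reading; agonist 54-4 at EC80 (4 uM final) then added.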
Menin MLL FP FL – menin-MLL binding inhibition, fluorescein peptide; FP activity change, % at 61.4 µM; 290,000 tested, under 10 active; Fluorescence polarization, fluorescein-MLL peptide displacement from menin; inconclusive = falling polarisation curve, or a change in total fluorescence; inactive = total fluorescence flat and polarisation flat or rising; no compound was filed as active; the % refers to the polarisation; negative = inhibition;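 note: % of control where 0% means no effect; inhibitors lower the polarisation; unlabelled MLL peptide was the positive control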
ClpP mod – qHTS Assay for Activators of ClpP; AID 651965, 2013; ATP-dependent Clp protease proteolytic subunit (Bacillus subtilis (strain 168)), P80244; 1.9% of 340,000 active; purified B. subtilis ClpP, FRET peptide cleavage, 20 min; Potency, µM (doses to about 57.5 µM), for inactives: top-dose activity change, negative = active; active = well fitted falling curve with a large enough effect; inconclusive = small, poorly fitted or top-dose-only effect; inactive = no such curve, though single readings can be large or run the other way; note: potency is the fitted concentration of half-maximal effect; the source files actives as falling curves though it sought activators and does not explain the sign; nearly all actives have a fitted effect of over 65% in size; many hits overshoot -100%
Target sequence (P80244 whole entry, looked up): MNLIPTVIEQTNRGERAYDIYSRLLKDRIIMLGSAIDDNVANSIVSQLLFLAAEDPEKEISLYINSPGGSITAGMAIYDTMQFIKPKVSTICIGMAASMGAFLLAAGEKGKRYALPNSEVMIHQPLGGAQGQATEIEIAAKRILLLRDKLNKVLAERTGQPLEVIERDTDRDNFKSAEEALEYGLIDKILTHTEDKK
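Buffer: 100 mM Tris/HCl pH8, 100 mM KCl, 0.05% low protease BSA, 2.5% glycerol, 0.01% Tween-20. ClpP 10 microg/mL final; 20 min RT; delta FRET normalized to ADEP and DMSO controls.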
Sfp PPTase inh – Sfp phosphopantetheinyl transferase inhibition. Biochemical Sfp PPTase activity, qHTS. AID 1490. Potency, µM, for the others: max response, negative = inhibition, most hits filed as inhibitors. 3.5% of 310,000 active. Q9F4F7; active = well fitted inhibition curve with a large enough effect; inconclusive = small, poorly fitted or top-dose-only effect, or another doubt; inactive = no such curve, though single readings can be large or run the other way;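 note: the enzyme is Sfp with the accession as filed and its product quenches rhodamine fluorescence; potency is the fitted concentration of half-maximal effect; 0% = enzyme reaction without inhibitor and -100% = no enzyme wells; top concentration of the series not given in the record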
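Fluorescence-quenching assay: 15 nM Sfp-PPTase preincubated 15 min at room temperature with compound, then 5 uM rhodamine-CoA and 12.5 uM BHQ-2-labelled YbbR peptide added. Fluorescence (ex 525/em 598 nm) read at start and after 30 min; difference gives rate.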
TRPML1 agonist – agonists of human TRPML1 channel. activation, % (concentration not given with the values). TRPML1-expressing cells, Ca2+ dye fluorescence, FDSS; host cell line not named in the record; reference of the full effect not given here. Q9GZU1. 0.12% of 410,000 active. AID 624414; in the data active = activation above about 50%; inconclusive = about 30% to 50%; inactive = below about 30%; note: 0% is about no effect; the text of the record puts the active cut at 80%
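Agonist activity was taken from a 110 s kinetic Ca2+ dye read on the FDSS after pinning compounds onto TRPML1-DL cells. The cells were seeded at 1,500/well with Tet inducer, incubated about 16 h, then dye-loaded at room temperature.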
PINK1 modulator – PINK1 expression modulation. PINK1 immunofluorescence, high-content cytometry, 24 h. Potency, µM (top dose mostly 76.6 µM), without a hit: top-dose activation (PINK1 increase), hits mostly activators. 0.2% of 410,000 active. AID 624263; active = well fitted activation curve with a large enough effect; inconclusive = small, poorly fitted or top-dose-only effect; inactive = flat fitted curve, though single readings scatter; cell line not stated here;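 note: potency is the fitted concentration of half-maximal effect; % of control where 0% means no effect; nearly all actives have a fitted effect of over 65% in size; a mitochondrial uncoupler was the plate control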
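Readout is PINK1 immunofluorescence, quantified alongside mitochondrial, cell and nuclear markers by laser-scanning microplate cytometry. Cells from a stable line were exposed to compound titrations (5 concentrations) for 24 hours, with CCCP controls.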
Active calls of the source: *; ? = inconclusive; nt = no result given; & = joins results of further samples; [ ] = another dose, or the depositor's remark.

SMILES	TRPV1 PAM	TRPML1 inh	Menin MLL FP FL	ClpP mod	Sfp PPTase inh	TRPML1 agonist	PINK1 modulator
CCOC(=O)C1(Cc2ccccc2C(F)(F)F)CCN(Cc2ccon2)CC1	-28	-3	-1.6	nt	16%	1.8	0.0%
COc1ccc(Nc2c(-c3ccc(OC)cc3)nc3cnccn23)cc1	-12	26	-1.3	-2.1%	2%	0.4	3.0%
CN(C)S(=O)(=O)c1ccc(Cl)c(C(=O)Nc2nc3ccccc3[nH]2)c1	-3	19	-2.3	nt	11%	-0.1	1.7%
Fc1cccc2sc(N3CCCC3)nc12	12	-16	1.2	?	3%	-0.3	0.0%
CCOC(=O)Cc1csc(NC(=O)CN(C)S(=O)(=O)c2cccc3cccnc23)n1	13	18	0.9	-1.7%	9%	-0.7	2.5%
O=C(NCCCNC(=O)c1cnccn1)c1cccc(F)c1	2	-2	-0.8	nt	13%	0.0	0.3%
CCn1c(=S)sc2c(=O)n(CC(=O)Nc3ccc(C(C)=O)cc3)c(C)nc21	6	-3	-1.1	-0.3%	11%	0.3	5.4%
CSc1nc2sc3c(c2c(=O)n1-c1ccc(C)cc1)CCCC3	nt	-8	nt	-27%	nt	0.4	0.4%
CCCN1CNc2c(c(=O)[nH]c(=S)n2CCc2ccc(OC)c(OC)c2)C1	8	-8	-0.7	-1.4%&-5.0%	7%	-0.1&-0.3	0.4%&0.0%
Cc1ccc(OCc2cc(C(=O)NCc3ccc(OC(F)(F)F)cc3)no2)cn1	-9	3	nt	0.7%	18%	3.9	0.8%
Cn1nc(C(=O)NCCCN2CCCCC2)c2c1-c1ccccc1S(=O)(=O)C2	-2	19	2.0	-14%	20%	2.5	1.6%
CC1CCN(Cc2c(O)ccc3c(=O)c(-c4cccc(Cl)c4)c(C(F)(F)F)oc23)CC1	nt	-10	nt	-1.2%	nt	-0.2	-0.4%
COc1ccc(Cl)cc1NC(=O)c1cc(=O)c2cc(C)cc(C)c2o1	nt	14	nt	-2.1%	nt	-0.7	3.7%
CSc1nsc(N/N=C/c2ccccc2)c1C#N	4	3	6.3	nt	9%	0.1	1.0%
Cc1c(C(=O)N(C)Cc2ccc(F)cc2)sc(=O)n1Cc1ccc(Cl)c(Cl)c1	nt	nt	nt	-3.7%	nt	0.6	1.0%
CSc1nc2ccc3nc(NC(=O)C4COc5ccccc5O4)sc3c2s1 (stereo not given)	?	-17	6.2	?	-9%	0.1	-1.3%
CCc1ccc(C(=O)Cn2cnc3cc([N+](=O)[O-])ccc3c2=O)cc1	9	35	4.6	-1.6%	0%	0.8	8.7%
NC(c1ccccc1)c1csc(Nc2ccc(C(F)(F)F)cn2)n1 (stereo not given)	nt	18	nt	-2.7%	nt	1.3	-1.6%
Cc1cccc(NC(c2cccc(Cl)c2)c2ccc3cccnc3c2O)n1 (stereo not given)	nt	4	nt	-3.1%	nt	2.5	14%
Nc1ccc(SCc2nc3cccc4c3n2CCC4)cc1	-10	10	-4.5	-1.0%	?	-0.7	2.1%
Cc1ccnc(SCC(=O)NC2CCCCCC2)n1	1	-12	-3.5	1.3%	7%	-0.5	0.9%
Cc1ccc(-c2cc(N)on2)cc1	9	-4	6.7	1.0%	30%[activator]	0.9	-0.8%
CC(NC(=O)COC(=O)c1ccc(Br)o1)c1ccccc1 (stereo not given)	-37	-3	nt	-1.3%	nt	1.4	-0.6%
COc1ccc(NC2CCCN(C(=O)c3ccc(OC)o3)C2)cc1 (stereo not given)	-25	-4	nt	-3.4%	-6%	0.4	0.3%
COc1ccccc1N1CCN(C2CCCN(C(=O)c3cccc(-c4ccco4)c3)C2)CC1 (stereo not given)	-22	5	nt	-10.0%	-27%	1.3	2.5%
SMILES	TRPV1 PAM	TRPML1 inh	Menin MLL FP FL	ClpP mod	Sfp PPTase inh	TRPML1 agonist	PINK1 modulator
OC(COCc1ccco1)CN1CCN(C(c2ccccc2)c2ccccc2)CC1 (stereo not given)	-13	10	-5.2	-2.4%	-20%	-0.8	3.2%
O=C(CN1CCOCC1)Nc1ccc(Br)cn1	-15	12	-0.2	-0.3%	17%	0.4	0.2%[38.3 µM]
O=C(Nc1cc(Cl)ccc1Cl)c1noc2c1CCCC2	-9	33	1.9	1.0%	7%	-0.3	8.1%
OCCC1CN(Cc2ccon2)CCN1CCc1ccccc1 (stereo not given)	7	-8	3.5	nt	0%	-0.6	0.1%
Cc1cc(Br)cn2c(Cc3ccsc3)c(-c3cccc(Br)c3)nc12	nt	nt	nt	0.4%	nt	0.2	3.6%
Cc1cccc(-n2ncc3c(NNC(=O)c4ccccc4Cl)ncnc32)c1	nt	29	nt	-6.8%	nt	-0.3	3.6%
COc1cccc2c1[C@@H]1CN(CCCCn3c(=O)[nH]c4c(sc5ncc(-c6ccccc6)nc54)c3=O)C[C@@H]1CO2	-7	0	2.0	-4.8%	nt	-0.5	-0.4%
Cn1nc(C(F)(F)F)c2cc(C(=O)Nc3ccc(Cl)cc3)sc21	-16	18	-0.3	69%	5%	-0.2	3.6%
CC1=NN(c2ccccc2)C(=O)C1C(=S)SC1CC(=O)NC1=O (stereo not given)	nt	-23	nt	1.5%	nt	0.2	0.5%
O=C(CCCN1C(=O)/C(=C/c2cccs2)SC1=S)NNC(=O)c1ccc(F)cc1	?	12	7.1	5.4%	1%	5.2	11%
Cc1cccc(C(=O)N2CCc3cc(-c4csc(NC(=O)CN5CCCC5)n4)ccc32)c1	-5	-2	0.8	nt	-17%	-0.5	0.9%
Cc1ccc(CNC(=O)c2ccc(CNc3c(N4CCCC4)c(=O)c3=O)cc2)cc1	-1	-8	-1.9	1.2%	11%	-0.6	2.4%
Cc1cccc(N2C(=O)/C(=C\c3ccc(C(=O)O)cc3)c3ccccc3C2=O)c1	-2	-8	2.2	-2.2%	5%	-0.3	1.1%
CC(C)(C(=O)c1ccccc1)/[N+]([O-])=C/c1ccc(Br)cc1	nt	5	nt	0.0%	nt	0.5	-3.6%[38.3 µM]
O=C1NC[C@@H](Cc2ccc(O)cc2)N(CC2CCCCC2)C1=O	1	-3	-1.7	2.0%	9%	-0.9	-0.2%
COc1ccc(CNCCC2(C(C)C)CCOC(C)(C)C2)cc1 (stereo not given)	-2	15	-1.4	0.4%	17%	0.3	1.0%
CCCN(CC(=O)Nc1ccccc1OC)C(=O)Cc1ccccc1F	-17	-11	-0.1	nt	11%	-0.5	0.0%
Cc1nc(-c2ccccc2)sc1-c1ccn[nH]1	14	-12	-4.1	4.3%	10%	0.7	1.2%
CC1CC(Nc2ccccc2)c2ccccc2N1C(=O)c1ccccc1F (stereo not given)	-12	36	0.8	-3.0%	1%	2.6	2.0%
CC(/C=C1\N=C(SCc2ccccc2)SC1=O)=C\c1ccccc1	23	17	nt	-4.2%	-10%	-0.2	18%
CCOc1ccc(/C=N/NC(=O)CN2CCCCCCC2)cc1	16	50	-0.2	3.8%	-27%	1.9	0.5%
Cc1ccc(/C=C2/C(=O)N(c3ccccc3)C(=S)N2C)o1	-8	-14	-21	2.6%	5µM*	0.7	13%
Cc1cccc(-c2noc(-c3ccc4c(c3)OCO4)n2)c1	22	-19	3.2	-2.5%	14%	0.5	6.3%
Cc1ccccc1CS(=O)(=O)CCC(=O)NCCCN1CCOCC1	3	-9	6.1	-0.2%	1%	0.3	-0.6%
COCCN(Cc1nnc(-c2cccs2)o1)C(=O)CN1C(=O)NC2(CCCCC2)C1=O	nt	-10	nt	nt	nt	-0.2	-2.6%
SMILES	TRPV1 PAM	TRPML1 inh	Menin MLL FP FL	ClpP mod	Sfp PPTase inh	TRPML1 agonist	PINK1 modulator
COc1cccc(C(=O)NCC(=O)N2CCN(c3ccc(C(F)(F)F)cn3)CC2)c1	?	-1	nt	nt	nt	-0.2	3.2%
COCCN1C(=O)N[C@H](c2cccc(C(F)(F)F)c2)C(C(=O)OC)=C1C	-18	nt	-2.2&3.1	nt	4%&-6%	nt	nt
COc1cccc(CNC(=O)c2oc3c(c2C)-c2nn(Cc4cccc(Cl)c4)cc2CC3)c1	nt	-3	nt	?	nt	0.2	1.6%
Cc1ccc2ncnc(Nc3cccc([N+](=O)[O-])c3)c2c1	5	3	0.7	-7.0%	-6%	3.4	-2.9%
COCCn1c(SCC(=O)Nc2ccc(C(C)=O)cc2)nnc1-c1ccco1	5	19	4.4	nt	-7%	0.4	-0.2%
CC(=O)N1CCN(c2ccccc2NC(=O)COc2cc(C)cc(C)c2)CC1	-16	12	-3.6	1.6%	15%	-1.2	1.0%
CN1CCN(/C=C2\SC(=S)NC2=O)CC1	-2	-3	3.6	0.9%	-21%	-0.1	-0.6%
Cc1nc2ccc(C(=O)Nc3ccc4c(c3)OCC(=O)N4)cn2c1N(C)C(=O)CCc1ccccc1	nt	nt	nt	-1.5%	nt	-0.3	1.2%
COC1=C(Nc2ccccc2)C(=O)C(OC)=C(Nc2ccccc2)C1=O	nt	-7	nt	nt	nt	0.2	-1.0%
COc1ccc(NS(=O)(=O)c2cn(C)c(=O)n(C)c2=O)c(OC)c1	-3	nt	1.7	-2.2%	17%	nt	0.4%
COc1ccc(-c2csc(N(Cc3ccccc3)C(=O)COc3ccc(Cl)cc3)n2)cc1	-5	-5	1.6	0.0%	4%	0.0	?
Cc1cccc(CC2(O)C(=O)Nc3ccccc32)n1 (stereo not given)	nt	11	nt	-1.2%	nt	0.2	-4.1%
N#C/C(=C\c1ccco1)C(=O)NCc1ccccc1	1	7	1.6	0.8%	10%	-0.5	4.9%
CCOC(=O)C1=C(C)OC(=CC=Cc2ccccc2)C1=O	nt	-2	nt	20%	nt	-0.2	1.9%
Cc1cccc(NC(=O)Nc2cccc(C#N)c2)n1	1	-10	-3.0	-0.6%	6%	0.2	0.4%
CCCC(c1nnnn1C(C)(C)C)N1CCN(C(=O)c2ccco2)CC1 (stereo not given)	17	2	0.7	nt	-14%	0.2	1.5%
Cc1ccccc1NC(=O)C(c1ccccc1)C1CCCC1 (stereo not given)	-3	-16	-2.3	nt	11%	-0.5	-0.9%
COC1=NC(=C(c2ccccc2)c2ccccc2)OC1=O	nt	17	nt	nt	nt	-0.5	1.4%
CC(C)CC(NC(=O)C1CCCN1C(=O)OC(C)(C)C)C(=O)NCC(N)=O (stereo not given)	-3	-2	1.6	1.6%	12%	0.4	-0.6%
